# Vif A3G = HIV-1 Vif–A3G interaction blockers – biochemical, TR-FRET, GST-Vif 1-94, biotin-A3G peptide, dose response retest, primary screen (AID 1117319); 260,000 compounds, 0.57% hits; one-dose inhibition, %; IC50 in µM for titrated hits; TR-FRET GST-Vif / biotin-A3G peptide binding; higher % means a stronger effect; test concentration not given here; strong numbers were not always called active;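 active = above the screen mean plus three standard deviations and confirmed in dose response; inconclusive = results disagree or hit not tested in dose response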;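 note: Vif residues 1-94 fused to GST binding biotinylated APOBEC3G peptide 110-148; 0% = full assay without inhibitor and 100% = GST in place of GST-Vif; retest series ran down from 100 µM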
# MLL AF4-AF9 inh = blocks AF4 peptide binding to human AF9; AlphaScreen, biotin-AF4 peptide binding to FLAG-AF9; inhibition, % at 10 µM; 350,000 compounds, 0.47% hits;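 active = every replicate reaching a set inhibition limit, whatever the replicate mean, cut at about 25% in these data; inconclusive = mean inhibition reaches that limit but some replicates miss it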;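 note: 0% = plate neutral control median and 100% = total signal loss; the record names both 10 and 1 µM as test concentration; the first replicate is given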
# Target sequence (P42568 whole entry, looked up): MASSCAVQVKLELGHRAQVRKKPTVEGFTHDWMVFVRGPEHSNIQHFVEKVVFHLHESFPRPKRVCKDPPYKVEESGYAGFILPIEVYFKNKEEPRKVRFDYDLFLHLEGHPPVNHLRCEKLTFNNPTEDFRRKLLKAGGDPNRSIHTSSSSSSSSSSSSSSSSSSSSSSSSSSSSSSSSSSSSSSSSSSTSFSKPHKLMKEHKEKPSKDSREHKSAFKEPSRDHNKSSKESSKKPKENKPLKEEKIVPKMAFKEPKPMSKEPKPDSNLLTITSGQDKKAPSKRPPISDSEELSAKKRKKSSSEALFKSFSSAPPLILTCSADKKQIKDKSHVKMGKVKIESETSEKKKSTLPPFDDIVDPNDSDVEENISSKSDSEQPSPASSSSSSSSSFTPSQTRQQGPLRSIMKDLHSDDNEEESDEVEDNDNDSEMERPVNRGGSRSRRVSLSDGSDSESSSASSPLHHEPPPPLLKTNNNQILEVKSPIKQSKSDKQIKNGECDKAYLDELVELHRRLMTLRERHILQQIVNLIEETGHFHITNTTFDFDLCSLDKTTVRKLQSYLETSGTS
# Calb FLC = C. albicans growth modulation with fluconazole; AID 1979; growth inhibition, % (concentration not given with the values); C. albicans CaCi-2 (fluconazole-resistant clinical isolate) + fluconazole, Alamar Blue growth, 48 h; 300,000 compounds, 0.57% hits;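 active = most replicates above 75%; inconclusive = exactly half above 75%; inactive = most below 75%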;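 note: all wells also contain fluconazole at 8 µg/ml as a sub-toxic cotreatment; 0% = median of DMSO wells and 100% = median of geldanamycin control wells; wells of about 8 µL received 7.5 nL stock; the first replicate is given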
# rRNA inh HTS = inhibits bacterial ribosomal RNA function over humanized ribosomes; E. coli WT GFP vs humanized-ribosome RFP mutants, fluorescence, 24 h; hits give low values; DMSO median 0, no signal -100; GFP signal change (wild-type ribosome), % (concentration not given with the values); 350,000 compounds, 1.6% hits;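 active = significant combined selectivity score with lowered wild-type GFP, culture density cut under 30%, mutant RFP and density less affected; inactive = any of these conditions unmet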; note: one replicate is shown; some compounds called inactive have numbers as strong as hits
# Beta apoptosis = beta cell apoptosis inhibition. INS-1E cytokine-induced death, ATP luminescence, 48 h; percent of positive-control rescue, neutral wells zero. protection from apoptosis, % (no concentration beside the values). 300,000 compounds, 0.8% hits. AID 435005;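 active = all replicates at 75% or more, or half of them and the mean; inconclusive = half reach 75% but not the mean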;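 note: 0% = cytokine-treated negative control wells and 100% = positive control rescue; higher means more ATP so stronger rescue from cytokine killing; wells of about 40 µL received 100 nL stock; the first replicate is given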
# A1 inh = inhibitors of the anti-apoptotic protein A1, read as caspase activation | MEF A1-2A-BIM cells, Caspase-Glo 3/7 luminescence, 3 h; percent of clofoctol response, vehicle zero | caspase activation, % (test concentration not listed) | 330,000 compounds, 0.066% hits;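 active = over half of replicate activation scores above 10%, or exactly half above 10 with the replicate mean above 10; inconclusive = replicate mean below 10 yet half the replicates above 10; inactive = over half of replicates below 10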;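 note: wells of about 30 µL received 50 nL stock; many hits fall short of the cut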
# T cruzi repl = T. cruzi replication inhibition | inhibition, % (test concentration not listed) | T. cruzi beta-gal in NIH3T3, luminescence, 90 h | AID 1885 | 300,000 compounds, 1.4% hits;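 active = mean inhibition across valid replicates above about 55%, limit read from the data; inconclusive = mean below that limit but half or more replicates reach it; inactive = mean below it, under half of replicates reach it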;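 note: signal also drops with host cell toxicity which is not excluded here; 0% = plate median of DMSO wells and 100% = zero luminescence signal; higher percent means less beta-gal luminescence so fewer parasites; stock transfer was 50 nL into about 50 µL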
# RanGTP-Impb inh = disruptors of Ran-importin-beta complex formation – biochemical, FRET, CFP-Ran, YFP-importin-beta, homogeneous, primary screen; cell-free CFP-Ran/YFP-importin-beta FRET ratio; AID 2216; 300,000 compounds, 1.1% hits; inhibition, % (no concentration beside the values);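 active = most replicates above 15%; inconclusive = exactly half above 15%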;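 note: 0% = DMSO wells and 100% = Ran loaded with GDP instead of GTP; wells of about 40 µL received 100 nL stock; the first replicate is given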
# rRNA inh HTS OD600 = also measured in rRNA inh HTS; calls as there; OD600 change, %; measured here: OD600 growth;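 optical density of the mix in the first replicate; 0 = DMSO median and -100 = no signal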
# rRNA inh HTS RFP = recorded beside rRNA inh HTS, whose call it bears; RFP signal change, %; measured here: RFP humanized mutant strains;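 first replicate; 0 = DMSO median and -100 = no signal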
# The depositor's hits bear a star; ? = inconclusive; · = not tested or not shown. A portion of the library; the hit share may differ from the screen's.
SMILES,Vif A3G,MLL AF4-AF9 inh,Calb FLC,rRNA inh HTS,rRNA inh HTS OD600,rRNA inh HTS RFP,Beta apoptosis,A1 inh,T cruzi repl,RanGTP-Impb inh
CCCCN(C)CCNC(=O)CCNC(=O)Cn1ccc2ccccc2c1=O,4%,-4.1,-18,8,6,0.9,-10,-0.6,-18,-3.2
O=C(COc1ccc2ccccc2c1)Nc1cccnc1Cl,·,-0.5,2,0,0,-1.3,·,-1.9,-7,4.2
Cc1ccc(C(=O)OC(C)CN2C(C)CCCC2C)cc1 (centres undefined),-5%,-4.1,1,12,0,0.4,4,1.9,19,-0.6
Cc1sc2ncnc(NCCCn3ccnc3)c2c1C,-12%,·,0,·,·,·,3,1.7,-17,-3.2
O=C(NC1CCCCC1)c1ccc(NS(=O)(=O)c2cccc3cccnc23)cc1,0%,0.4,1,-12,-8,4.6,-3,3.1,5,9.1
CCOCCCn1c(NN)nc2ccccc2c1=O,14%,3.6,0,9,6,-1.0,2,-0.2,-17,-2.7
Brc1ccc(-c2noc3c2-c2nc(-c4ccccc4)sc2CC3)cc1,·,1.5,-6,10,7,-0.4,-5,0.6,15,0.8
Cc1ccc(CC(CC(=O)NCCc2ccc3c(c2)OCO3)C(=O)O)cc1 (centres undefined),2%,·,0,·,·,·,-3,0.5,-15,3.0
CN(C(=O)c1ccc2nc(N)sc2c1)c1ccccc1,-4%,-2.5,-6,13,15,0.0,4,0.5,4,-1.3
CCCS(=O)(=O)c1nc(S(=O)(=O)c2ccc(C)cc2)c(N2CCN(CC)CC2)s1,·,0.5,-1,4,-4,0.9,-2,-0.6,8,3.1
O=C1CSCC(=O)N1Cc1ccc(Cl)cc1Cl,1%,-2.5,0,-16,-2,-2.7,-10,0.2,-8,-2.2
CCSc1nnc(Cc2cc(=O)[nH]c(=O)[nH]2)n1-c1ccc(Cl)cc1,·,0.9,-1,9,11,2.4,-1,-0.1,3,0.4
COc1ccc(C2CC(c3ccc4ccccc4c3OC(C)=O)=NN2C(C)=O)cc1 (centres undefined),10%,-0.7,5,-4,7,-0.6,96*,0.1,1,1.6
Cc1sc(NC(=O)CCCCC(=O)Nc2sc(C)c(C)c2C(=O)O)c(C(=O)O)c1C,·,-1.2,9,0,-1,1.4,-4,0.5,-11,8.4
O=c1[nH]c(SCc2ccc(Cl)cc2)nc2c1CCC2,31%,·,-15,·,·,·,·,-0.3,-2,4.2
Cc1cc(-c2ccc(C)c(S(=O)(=O)NCCCN3CCCCCC3)c2)on1,·,-0.6,-3,3,5,12,-6,0.1,-9,-0.8
C=C(C)C(=O)N1CC2(CC(c3cccc(NC(=O)/C(C)=C\C)c3)=NO2)C[C@H]1C(N)=O (some centres undefined),-3%,·,7,13,8,-2.3,-1,1.6,-10,0.5
COc1cccc(C2=NOC(C(=O)NCC3CCCO3)C2)c1 (centres undefined),0%,·,43,·,·,·,-2,0.0,-8,?
COc1ccc(C(=O)CCC(=O)N2CCN(c3ccc(N4CCOCC4)nn3)CC2)cc1,4%,0.3,-4,6,-1,-8.5,·,0.2,-21,0.5
Nc1ccc2c(c1)C(=O)Cc1ccccc1S2,3%,-10,-25,4,1,0.4,-8,0.2,2,-4.6
COC(=O)C1=C(C(=O)OC)[C@@H]2Nc3ccccc3[C@@]23C[C@@H](C(=O)OC)N(C(=O)NC2CCCCC2)C3=N1,·,4.5,18,11,12,2.6,2,-0.3,-3,0.1
O=C(Nc1nnc(-c2ccc3c(c2)OCCO3)o1)C1CCCCC1,2%,-0.7,11,17,11,-11,-9,0.7,-11,9.3
CC(C)(Oc1ccc(CCNC(=O)c2ccc(-c3ccc(Cl)cc3)o2)cc1)C(=O)O,-3%,-0.5,-11,-26,-33,-4.9,-1,0.1,-7,2.4
CCCCOc1ccccc1C1C(C(=O)OC)=CN(CC)C=C1C(=O)OC,-2%,·,6,·,·,·,4,0.1,14,107*
O=C(Nc1cccc(C(=O)N2CCCCC2)c1)c1ccccc1Br,0%,-0.3,-10,3,-2,-3.2,-21,-0.2,-1,-0.5

# New compounds follow.
SMILES,Vif A3G,MLL AF4-AF9 inh,Calb FLC,rRNA inh HTS,rRNA inh HTS OD600,rRNA inh HTS RFP,Beta apoptosis,A1 inh,T cruzi repl,RanGTP-Impb inh
CCN(C(=O)COC(=O)c1ccc(Cl)c(N)c1)C1CCS(=O)(=O)C1 (centres undefined),4%,-6.7,-1,7,21,2.3,4,-0.2,-20,-0.3
CCn1c(CCCCc2n[nH]c(=S)n2CC)n[nH]c1=S,3%,-2.7,-6,15,9,3.9,-10,0.4,-7,2.5
CC(C)C[C@H](NC(=O)C1(c2ccccc2)CCN(C(=O)[C@H]2CSCN2C(=O)OC(C)(C)C)CC1)C(=O)O,·,-0.8,?,0,11,-4.1,0,0.5,-5,-2.4
COc1ccc2sc(-c3ccc(N(C)C)cc3)c(-c3ccc4cc[nH]c4c3)c2c1,·,-12,·,12,12,-0.5,9,1.4,·,·
Cc1ccc(O)c(C(=O)CC(=O)c2cccc(F)c2)c1,24%,·,-11,·,·,·,4,-1.1,-8,2.2
COc1ccccc1/C=C/CN1CCCC(CO)(CCc2ccccc2)C1 (centres undefined),·,8.4,-2,-19,-29,21,2,0.9,23,2.3
CCc1cc(CNC(=O)CCc2nnc(Cc3cccc(C)c3)o2)on1,-2%,-2.0,-1,7,6,-2.6,0,0.3,-4,2.4
O=C(O)CCC1=C2c3ccccc3CCN2C(=O)CC1,-4%,·,-6,·,·,·,-3,-0.6,7,0.5
O=C(N/N=C/c1ccc(O)c(O)c1)c1ccc(-n2cnnn2)cc1,12%,-0.5,·,9,18,0.7,4,0.1,·,·
CCn1c(=O)c2cc(C(=O)NCCN(C)C)sc2c2ccccc21,-9%,-0.5,-6,4,-2,2.7,6,-0.8,22,0.2
COc1ccc(C(=O)/C=C/Nc2ccc(S(=O)(=O)Nc3ncccn3)cc2)cc1,11%,·,4,·,·,·,0,-0.2,-10,?
CCOC(=O)C1=C(C)NC(=O)NC1c1ccoc1 (centres undefined),3%,·,-1,·,·,·,·,0.2,-3,8.5
CC(=O)Nc1c(-c2ccccc2)nc2cc(C)ccn12,·,3.7,-3,15,18,0.0,1,0.9,-22,4.0
CCOc1ccc(S(=O)(=O)n2c(C)nc3ccccc32)cc1,12%,-1.0,·,10,8,0.0,-3,-4.4,·,·
CN(CC(=O)Nc1ccccc1Cl)C(=O)CSc1ncc(C(F)(F)F)cc1Cl,·,·,-2,·,·,·,-2,-2.0,11,-1.4
Cc1nc([N+](=O)[O-])c(C(=O)O)n1C,1%,0.4,10,17,10,-1.8,-3,0.4,-21,2.1
COc1cccc(Nc2nc(CC(C)=O)ns2)c1,-3%,·,-2,·,·,·,-2,-0.1,-12,-0.9
CS(=O)(=O)N1CCCC(C(=O)Nc2cccc(F)c2)C1 (centres undefined),·,-12,-5,7,8,0.2,-2,0.1,0,-2.6
CCOc1ccc(Cl)cc1C(c1c(C)[nH][nH]c1=O)c1c(C)[nH][nH]c1=O,9%,5.5,1,2,5,1.1,·,0.4,-23,0.9
COc1ccc(/C=N/NC(=O)CSc2ccccc2)cc1OC,·,·,-4,·,·,·,-9,-1.2,-3,8.0
O=C(O)/C=C/C(=O)Nc1ccc(Oc2ncnc3cc(Cl)ccc23)nc1,6%,·,-21,·,·,·,-6,0.3,-23,1.6
COc1ccc(C(=S)N2CCCC2)cc1,0%,·,-2,·,·,·,-3,0.0,0,-0.1
CC(C)(C)OC(=O)N1CCC(CNC(=O)Nc2ccccc2)CC1,2%,-1.4,-2,-28,-42,-10,-1,-0.7,-5,4.9
Cc1ccc(C2=[N+]([O-])C(C)(C)CC2)cc1,1%,·,-5,·,·,·,-7,2.9,-5,3.3
CN(c1ccccc1C(=O)N1CCCC1)S(C)(=O)=O,4%,·,-2,·,·,·,-14,-0.4,-3,5.7
CCN(Cc1ccc(OC)c(COC)c1)CC1CCCN(CCc2cccc(OC)c2)C1 (centres undefined),-10%,2.2,-5,-4,-1,1.3,11,-0.2,35,0.5
O=C(CCN1C(=O)/C(=C/c2ccc3c(c2)OCO3)SC1=S)Nc1ccc(C(=O)O)cc1,-3%,-0.2,-10,6,6,0.0,-2,-2.4,13,-12

# A different layout for part of the listing above.
SMILES | Vif A3G | MLL AF4-AF9 inh | Calb FLC | rRNA inh HTS | rRNA inh HTS OD600 | rRNA inh HTS RFP | Beta apoptosis | A1 inh | T cruzi repl | RanGTP-Impb inh
CCCCN(C)CCNC(=O)CCNC(=O)Cn1ccc2ccccc2c1=O | 4% | -4.1 | -18 | 8 | 6 | 0.9 | -10 | -0.6 | -18 | -3.2
O=C(COc1ccc2ccccc2c1)Nc1cccnc1Cl | · | -0.5 | 2 | 0 | 0 | -1.3 | · | -1.9 | -7 | 4.2
Cc1ccc(C(=O)OC(C)CN2C(C)CCCC2C)cc1 (centres undefined) | -5% | -4.1 | 1 | 12 | 0 | 0.4 | 4 | 1.9 | 19 | -0.6
Cc1sc2ncnc(NCCCn3ccnc3)c2c1C | -12% | · | 0 | · | · | · | 3 | 1.7 | -17 | -3.2
O=C(NC1CCCCC1)c1ccc(NS(=O)(=O)c2cccc3cccnc23)cc1 | 0% | 0.4 | 1 | -12 | -8 | 4.6 | -3 | 3.1 | 5 | 9.1
CCOCCCn1c(NN)nc2ccccc2c1=O | 14% | 3.6 | 0 | 9 | 6 | -1.0 | 2 | -0.2 | -17 | -2.7
Brc1ccc(-c2noc3c2-c2nc(-c4ccccc4)sc2CC3)cc1 | · | 1.5 | -6 | 10 | 7 | -0.4 | -5 | 0.6 | 15 | 0.8
Cc1ccc(CC(CC(=O)NCCc2ccc3c(c2)OCO3)C(=O)O)cc1 (centres undefined) | 2% | · | 0 | · | · | · | -3 | 0.5 | -15 | 3.0
CN(C(=O)c1ccc2nc(N)sc2c1)c1ccccc1 | -4% | -2.5 | -6 | 13 | 15 | 0.0 | 4 | 0.5 | 4 | -1.3
CCCS(=O)(=O)c1nc(S(=O)(=O)c2ccc(C)cc2)c(N2CCN(CC)CC2)s1 | · | 0.5 | -1 | 4 | -4 | 0.9 | -2 | -0.6 | 8 | 3.1
O=C1CSCC(=O)N1Cc1ccc(Cl)cc1Cl | 1% | -2.5 | 0 | -16 | -2 | -2.7 | -10 | 0.2 | -8 | -2.2
CCSc1nnc(Cc2cc(=O)[nH]c(=O)[nH]2)n1-c1ccc(Cl)cc1 | · | 0.9 | -1 | 9 | 11 | 2.4 | -1 | -0.1 | 3 | 0.4
COc1ccc(C2CC(c3ccc4ccccc4c3OC(C)=O)=NN2C(C)=O)cc1 (centres undefined) | 10% | -0.7 | 5 | -4 | 7 | -0.6 | 96* | 0.1 | 1 | 1.6
Cc1sc(NC(=O)CCCCC(=O)Nc2sc(C)c(C)c2C(=O)O)c(C(=O)O)c1C | · | -1.2 | 9 | 0 | -1 | 1.4 | -4 | 0.5 | -11 | 8.4

# High-throughput results as filed in PubChem BioAssay.
